# FGF22 binding = binders of recombinant human FGF22 by thermal shift; SYPRO orange fluorescence; percent of sucrose octasulfate shift, DMSO zero; calls only at 9.99 µM; 340,000 compounds, 1.5% hits;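 active means melting point raised past a set limit in the mean and every replicate; three in four hits are not shown here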
# Target sequence (Q9HCT0 whole entry, looked up): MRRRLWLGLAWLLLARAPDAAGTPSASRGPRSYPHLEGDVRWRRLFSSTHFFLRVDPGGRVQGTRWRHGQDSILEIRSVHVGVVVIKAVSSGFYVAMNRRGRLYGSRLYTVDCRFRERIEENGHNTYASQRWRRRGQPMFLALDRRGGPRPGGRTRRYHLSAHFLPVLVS
# MLL AF4-AF9 inh = blocks AF4 peptide binding to human AF9; P42568; AlphaScreen, biotin-AF4 peptide binding to FLAG-AF9; inhibition, % at 10 µM; 350,000 compounds, 0.47% hits;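 active means every replicate reaching a set inhibition limit, whatever the replicate mean, cut at about 25% in these data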;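 further: 0% = plate neutral control median and 100% = total signal loss; the record names both 10 and 1 µM as test concentration; the first replicate is given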
# Target sequence (P42568 whole entry, looked up): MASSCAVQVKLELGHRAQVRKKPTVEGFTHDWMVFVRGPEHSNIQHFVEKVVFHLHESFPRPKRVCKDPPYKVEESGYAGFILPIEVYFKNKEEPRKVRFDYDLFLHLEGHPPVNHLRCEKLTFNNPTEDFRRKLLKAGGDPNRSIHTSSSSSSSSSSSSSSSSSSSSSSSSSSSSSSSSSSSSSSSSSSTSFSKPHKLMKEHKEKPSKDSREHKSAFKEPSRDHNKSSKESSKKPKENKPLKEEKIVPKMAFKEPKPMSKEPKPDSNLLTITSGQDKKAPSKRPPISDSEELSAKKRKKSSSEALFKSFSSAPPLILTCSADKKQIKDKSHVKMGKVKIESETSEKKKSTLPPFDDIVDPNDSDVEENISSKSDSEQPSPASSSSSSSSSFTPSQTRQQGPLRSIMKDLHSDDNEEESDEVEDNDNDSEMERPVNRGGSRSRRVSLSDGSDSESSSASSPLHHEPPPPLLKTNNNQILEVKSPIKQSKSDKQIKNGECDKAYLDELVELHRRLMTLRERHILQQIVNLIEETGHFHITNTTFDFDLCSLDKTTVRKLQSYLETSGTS
# Ecoli rRNA inh = inhibitors of bacterial rRNA selective over humanized ribosomes; E. coli WT GFP vs humanized-ribosome RFP mutants, fluorescence, 24 h; stronger effect = lower value; DMSO median 0, no signal -100; GFP signal change (wild-type ribosome), % (concentration not given with the values); 350,000 compounds, 1.6% hits;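 active means significant combined selectivity score with lowered wild-type GFP, culture density cut under 30%, mutant RFP and density less affected; inactive means any of these conditions unmet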; further: one replicate is shown; some compounds called inactive have numbers as strong as hits
# Ecoli rRNA inh OD600 = second read-out of Ecoli rRNA inh, no call of its own (marks repeat the call); OD600 change, %; measured here: OD600 growth;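 optical density of the mix in the first replicate; 0 = DMSO median and -100 = no signal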
# Ecoli rRNA inh RFP = further read-out of Ecoli rRNA inh, marked with its call; RFP signal change, %; measured here: RFP humanized mutant strains;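 first replicate; 0 = DMSO median and -100 = no signal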
# * = called active by the depositor; i = inactive; & = joins results of further samples. An excerpt, so the mix of outcomes need not match the whole.
SMILES,FGF22 binding,MLL AF4-AF9 inh,Ecoli rRNA inh,Ecoli rRNA inh OD600,Ecoli rRNA inh RFP
CCCCN(C=O)c1c(CC)nc2c(OCc3cc(Cl)cc(Cl)c3)cccn12,i,-0.1,-24.2,-60.2,14.7
C[C@H](CO)N1C[C@H](C)[C@@H](CN(C)C(=O)Nc2ccc(C(F)(F)F)cc2)Oc2c(NC(=O)c3nc4ccccc4s3)cccc2C1=O,i,1.5,-0.1,-2.0,2.8
CN(C)C(=O)[C@@H]1[C@@H](CO)[C@@H]2Cn3c(ccc(-c4ccccc4)c3=O)[C@H]1N2C(=O)C1CCCC1,i,-1.1,1.8,4.9,-2.1
C[C@@H]1CN([C@H](C)CO)S(=O)(=O)c2ccc(-c3cncnc3)cc2O[C@@H]1CN(C)C(=O)c1cccc(F)c1,i,2.8,4.8,11.8,2.1
COc1ccccc1-c1noc2c1C(=O)N(Cc1cn(-c3ccccc3OC)nn1)CC2,i,0.9,7.0,5.1,5.7
C[C@@H]1CN([C@H](C)CO)C(=O)c2cc(-c3cccc(C#N)c3)cnc2O[C@H]1CN(C)C,i,-2.0,2.3,-10.2,-4.7
CC(C)NC(=O)Nc1ccc2c(c1)C(=O)N([C@H](C)CO)C[C@@H](C)[C@H](CN(C)Cc1ccc(Cl)c(Cl)c1)OCCCC[C@H](C)O2,i,11.0,1.4,-43.1,30.6
Oc1ccccc1CC=NC1CCCCC1,i,-0.4,10.3,18.9,1.9
Cc1ccccc1S(=O)(=O)N[C@@H]1CC[C@@H](CCn2cc(-c3ccc(F)cc3)nn2)O[C@@H]1CO,i,-2.5,-0.7,-5.3,1.8
CN(C)CC(=O)N[C@@H]1CC[C@H](CCNS(=O)(=O)c2ccccc2)O[C@@H]1CO,i,1.0,2.1,1.8,-0.3
N#C[C@@H]1[C@H](c2ccccc2)[C@H](CO)N1C(=O)Nc1cccc(F)c1,i,2.3,-38.2,-51.4,4.5
COc1cccc(C#Cc2cnc3c(c2)C(=O)N([C@H](C)CO)C[C@@H](C)[C@@H](CN(C)C(=O)C2CCOCC2)O3)c1,i,-1.6,7.3,4.3,-0.6
C[C@@H]1CN([C@H](C)CO)S(=O)(=O)c2ccc(C#CC(C)(C)O)cc2O[C@@H]1CN(C)Cc1ccc(-c2ccccc2)cc1,i,10.9,-3.4,-22.4,7.7
CCC(=O)N1CCC2(CC1)CN(Cc1ccccc1Cl)[C@H](CO)c1c2c2ccc(OC)cc2n1C,i,3.4,-4.5,-4.3,0.6
COc1ccc2c3c(n(C)c2c1)[C@H](CO)N(CC1CC1)CC31CCN(Cc2nccs2)CC1,i,2.5,0.1,-3.3,-0.9
CO[C@@H]1CN(C)C(=O)c2ccc(NC(=O)c3nc4ccccc4s3)cc2OC[C@@H](C)N(Cc2ccncc2)C[C@H]1C,i,13.2,-8.1,5.1,8.6
Cc1cc(Cl)ccc1C(O)c1ncc(-c2ccccc2C(F)(F)F)[nH]1 (centres undefined),i,2.5,-19.5,-51.1,-9.9
C/C=C/c1ccc([C@H]2[C@@H](CO)N(CCC(F)(F)F)C23CN(C(=O)CC)C3)cc1,i,-2.9,-1.8,1.5,0.8
C[C@@H]1CN([C@@H](C)CO)C(=O)Cc2cc(NC(=O)CCC(F)(F)F)ccc2O[C@H]1CN(C)Cc1ccccc1,i,-6.1,-1.6,-3.8,-2.0
CO[C@@H]1CN(C)C(=O)c2ccc(NS(=O)(=O)c3ccccc3C)cc2OC[C@@H](C)N(C)C[C@H]1C,i,-1.4,-0.6,-4.7,0.9
c1ccc(Cn2ncc3c(N4CCN(c5ccccc5)CC4)ncnc32)cc1,i,-2.9,8.8,10.6,2.4
OC[C@@H]1[C@H](c2ccc(C3=CCCC3)cc2)[C@H]2CN(Cc3ccncc3)CCCCN12,i,7.4,-0.1,-6.1,2.0
O=C(Cc1ccncc1)N[C@H]1CC[C@@H](CCn2cc(-c3ccccc3F)nn2)O[C@@H]1CO,i,0.1,-1.5,1.8,0.4
C/C=C/c1cnc2c(c1)C(=O)N([C@@H](C)CO)C[C@@H](C)[C@@H](CN(C)C(=O)c1cnccn1)O2,i,-6.5,3.3,9.2,-3.9
CCCC(=O)Nc1ccc2c(c1)C(=O)N(C)C[C@H](OC)[C@@H](C)CN(C)[C@H](C)CO2,i,-1.0,2.9,7.4,-1.5

# Sorted by SMILES length (smallest number first): some entries from above
SMILES,FGF22 binding,MLL AF4-AF9 inh,Ecoli rRNA inh,Ecoli rRNA inh OD600,Ecoli rRNA inh RFP
Oc1ccccc1CC=NC1CCCCC1,i,-0.4,10.3,18.9,1.9
CN(C)CC(=O)N[C@@H]1CC[C@H](CCNS(=O)(=O)c2ccccc2)O[C@@H]1CO,i,1.0,2.1,1.8,-0.3
C[C@@H]1CN([C@H](C)CO)C(=O)c2cc(-c3cccc(C#N)c3)cnc2O[C@H]1CN(C)C,i,-2.0,2.3,-10.2,-4.7
CO[C@@H]1CN(C)C(=O)c2ccc(NC(=O)c3nc4ccccc4s3)cc2OC[C@@H](C)N(Cc2ccncc2)C[C@H]1C,i,13.2,-8.1,5.1,8.6
C[C@H](CO)N1C[C@H](C)[C@@H](CN(C)C(=O)Nc2ccc(C(F)(F)F)cc2)Oc2c(NC(=O)c3nc4ccccc4s3)cccc2C1=O,i,1.5,-0.1,-2.0,2.8

# (cont.)
SMILES,FGF22 binding,MLL AF4-AF9 inh,Ecoli rRNA inh,Ecoli rRNA inh OD600,Ecoli rRNA inh RFP
C#CCN(C[C@H]1[C@H](OC(=O)NCc2ccccc2F)[C@H](OC(=O)NCc2ccccc2F)C[C@@H](C(=O)OC)[C@H]1C(=O)OC)S(=O)(=O)c1ccc(C)cc1,i,-0.2,2.1,8.3,-2.2
C[C@@H]1CN([C@@H](C)CO)C(=O)c2cc(NC(=O)Nc3ccc(C(F)(F)F)cc3)ccc2O[C@@H]1CN(C)C,i,5.4,-0.1,-0.8,5.2
C[C@H]1CN([C@@H](C)CO)C(=O)c2cccc(NC(=O)NC3CCCCC3)c2O[C@@H]1CN(C)C(=O)Nc1ccc(C(F)(F)F)cc1,i,5.7,-7.1,-10.1,-3.3
CCC(=O)N1CC2(C1)[C@@H](c1ccc(-c3cccc(C)c3)cc1)[C@@H](CO)N2S(C)(=O)=O,i,-1.5,-2.5,-5.2,2.3
CC(C)NC(=O)Nc1cccc2c1O[C@@H](CN(C)Cc1ccncc1)[C@@H](C)CN([C@H](C)CO)C2=O,i,0.0,4.2,0.3,-2.4
COc1ccc(C[C@@H]2CCn3cc(nn3)COC[C@H](C(C)C)NC2=O)cc1,i,-3.6,0.9,6.4,-7.6
C[C@H](CO)N1C[C@H](C)[C@@H](CN(C)Cc2cncnc2)Oc2cc(-c3cncnc3)ccc2S1(=O)=O,i,-0.8,-3.1,10.2,-4.2
CO[C@@H]1CN(C)C(=O)c2cc(NC(=O)c3ccc(F)cc3)ccc2OC[C@H](C)N(C(=O)c2ccc(F)cc2)C[C@@H]1C,i,2.9,-5.8,-10.8,5.2
O=C(c1ccc2c(c1)OCO2)N1CC[C@@H]2[C@H](CO)Nc3ccc(-c4ccc(F)cc4)cc3[C@@H]21,i,3.5,-6.0,-43.1,19.4
COCCNC(=O)C[C@H]1C[C@H]2c3cc(NC(=O)C4CCC4)ccc3O[C@H]2[C@H](CO)O1,i,-1.4,2.8,8.2,1.6
C[C@@H]1CN([C@H](C)CO)C(=O)c2cc(NS(=O)(=O)c3cccs3)ccc2O[C@@H](C)CCCCO[C@@H]1CN(C)C(=O)NC1CCCCC1,i,-3.9,-4.3,-4.5,2.8
CO[C@@H]1CN(C)C(=O)c2ccc(NC(=O)c3ccccc3F)cc2OC[C@@H](C)N(C(=O)c2ccccc2F)C[C@@H]1C,i,-0.7,0.6,0.1,1.4
CCCNC(=O)C1(C)CCN(C(=O)c2ccc(OC(F)F)cc2)C1 (centres undefined),i,-1.4,7.0,18.4,0.7
C[C@@H]1CN([C@@H](C)CO)C(=O)c2cc(NS(=O)(=O)c3ccc(Cl)cc3)ccc2O[C@@H]1CN(C)Cc1ccc2c(c1)OCO2,i,5.3,-0.7,-23.5,3.4
CSc1ncnc2c1ncn2CCCN(C)Cc1ccco1,i,-1.4,6.7,7.9,2.2
Cc1ccc(S(=O)(=O)N2C[C@H]3C(=O)C[C@@H](c4ccc(Cl)cc4)N(S(=O)(=O)c4ccccc4C)[C@H]3C[C@H]2c2ccc(Cl)cc2)cc1,i,1.1,18.5,14.3,3.9
Cc1ccccc1-c1ccc2c(c1)O[C@@H](CN(C)C(=O)C1CC1)[C@@H](C)CN([C@H](C)CO)S2(=O)=O,i,-0.3,-4.1,2.7,1.1
COCC(=O)Nc1ccc2c(c1)C(=O)N(C)C[C@H](OC)[C@H](C)CN(CC1CC1)[C@@H](C)CO2,i,-0.4,3.3,2.9,-2.3
Cc1noc(C)c1NC(=O)N(C)C[C@H]1OCCCC[C@@H](C)Oc2ccc(NS(=O)(=O)c3cccs3)cc2C(=O)N([C@@H](C)CO)C[C@@H]1C,i,1.4,2.6,-2.3,1.2
CN1c2ccc(-c3cccc(C#N)c3)cc2[C@@H]2[C@@H](CCN2S(=O)(=O)c2ccccc2)[C@H]1CO,i,0.9,-7.4,-2.9,1.7
CC(C)N(C)c1ncnc2c1ncn2[C@H]1CN(Cc2cccnc2)C[C@@H](CO)O1,i,-2.6,13.0,11.0,2.1
C[C@H]1CN([C@@H](C)CO)C(=O)c2c(c3ccccc3n2C)-c2ccccc2CO[C@@H]1CN(C)S(=O)(=O)c1ccsc1,i,-24.1,0.4,6.4,0.9
COCCNC(=O)C[C@@H]1C[C@H]2c3cc(NC(=O)Nc4ccc(F)cc4)ccc3O[C@H]2[C@H](CO)O1,i,-2.1&-1.4,2.1&3.2,10.0&3.1,-2.6&-2.2
CC(=O)NC(c1ccccc1)c1nc(-c2cccc(C(F)(F)F)c2)cs1 (centres undefined),i,-0.5,6.6,11.1,1.1
CCCNC(=O)N1[C@H](CO)[C@H](c2ccccc2-c2cccc(C)c2)[C@@H]1C#N,i,-3.2,2.4,-30.6,-7.1

# More entries follow.
SMILES,FGF22 binding,MLL AF4-AF9 inh,Ecoli rRNA inh,Ecoli rRNA inh OD600,Ecoli rRNA inh RFP
Cc1noc(C)c1S(=O)(=O)Nc1ccc2c(c1)C(=O)N([C@@H](C)CO)C[C@H](C)[C@@H](CN(C)S(=O)(=O)c1ccc(F)cc1)O2,i,-2.8,-0.4,-2.5,-0.4
CC(C)C#Cc1ccc([C@@H]2[C@@H](C#N)N(C(=O)C3CC3)[C@@H]2CO)cc1,i,-1.0,-4.3,-8.2,-3.2
N#C[C@H]1[C@@H](c2ccccc2C2=CCCCC2)[C@H](CO)N1C(=O)c1ccccn1,i,-10.8,-13.9,-18.9,-3.2
C[C@H]1CN([C@@H](C)CO)C(=O)c2cc(NS(=O)(=O)c3ccc(Cl)cc3)ccc2O[C@H]1CN(C)C(=O)NC1CCCCC1,i,-1.4,-4.6,-10.2,-2.8
CC(=O)N(C)C[C@@H]1Oc2cc(-c3ccccc3)ccc2S(=O)(=O)N([C@@H](C)CO)C[C@@H]1C,i,-0.9,-5.2,-5.1,2.4
C[C@@H]1CN([C@@H](C)CO)C(=O)Cc2cc(NS(=O)(=O)c3ccccc3)ccc2O[C@H]1CN(C)C(=O)Nc1ccccc1,i,-2.0,-0.3,4.8,-0.6
O=C(Nc1ccncc1)c1cc(C2CCCCN2C(=O)CCCc2ccccc2)on1 (centres undefined),i,-5.1,3.9,-8.6,12.9
C[C@H]1CCCCO[C@H](CN(C)Cc2ccc(Cl)c(Cl)c2)[C@@H](C)CN([C@@H](C)CO)C(=O)c2cc(NC(=O)Nc3ccccc3)ccc2O1,i,0.5,0.3,3.9,3.0
C[C@H](CO)N1C[C@H](C)[C@H](CN(C)C(=O)c2cccc(F)c2)Oc2ncc(C3=CCCCC3)cc2C1=O,i,-4.3,1.5,4.1,4.8
O=C(N[C@H]1CC[C@@H](CCNS(=O)(=O)c2ccc(F)cc2)O[C@@H]1CO)C1CCOCC1,i,2.8,-0.8,-0.3,-3.9
COc1ccc(S(=O)(=O)N(C)C[C@@H]2Oc3c(NC(=O)Nc4ccc5c(c4)OCO5)cccc3C(=O)N([C@@H](C)CO)C[C@@H]2C)cc1,i,5.2,-5.0,-5.4,1.8
COc1ccccc1-c1cn(CC[C@@H]2CC[C@@H](NC(=O)C3CC3)[C@@H](CO)O2)nn1,i,0.7,-0.2,-0.1,0.7
COc1ccccc1-c1cn(CC[C@H]2CC[C@H](NC(=O)C3CCCCC3)[C@H](CO)O2)nn1,i,4.9,-4.5,-9.1,-0.7
O=C(C[C@H]1C=C[C@@H](NC(=O)Nc2ccc3c(c2)OCO3)[C@H](CO)O1)NCCCN1CCOCC1,i,-0.8,1.1,6.2,-0.2
C[C@H](NC(=O)C[C@H]1CC[C@@H](NC(=O)C2CCOCC2)[C@@H](CO)O1)c1ccccc1,i,-1.3,1.3,4.3,-1.2
CC(C)CC#Cc1cnc2c(c1)C(=O)N([C@@H](C)CO)C[C@@H](C)[C@H](CN(C)Cc1ccc3c(c1)OCO3)O2,i,14.2,-0.1,-37.7,31.7
CC(=O)N(C)C[C@H]1Oc2cc(C#Cc3ccccc3F)ccc2S(=O)(=O)N([C@@H](C)CO)C[C@H]1C,i,-4.5,0.3,8.4,6.1
C[C@@H]1CCCCO[C@H](CN(C)S(C)(=O)=O)[C@H](C)CN([C@@H](C)CO)C(=O)c2cc(NC(=O)Nc3ccc4c(c3)OCO4)ccc2O1,i,1.5,-4.1,-1.8,-0.2

# High-throughput results deposited in PubChem by Broad Institute.
